Screens: PubChem, Broad Institute
Hedgehog inh: Sonic Hedgehog pathway inhibition. Shh-LIGHT2 Gli-luciferase reporter, 30 h. inhibition, % (concentration not given with the values). hit rate 2.1% among 22,000. AID 2313;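 active = replicate mean of 65% or more; inconclusive = mean lower but half the replicates past it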;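 note: pathway switched on by Shh-conditioned medium diluted 1 in 25 in low serum; 100 nL library stock added to about 40 µL; 0% = median of neutral wells and 100% = positive control level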
YB-1 expr inh: YB-1 expression inhibition; U2OS, qRT-PCR YB-1 vs CDIP delta delta Cp, 16 h; hits give high values; zero = DMSO, each unit about twofold; delta delta Cp (YB-1 minus CDIP) (concentration not given with the values); hit rate 0.37% among 30,000; AID 434959;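 active = delta delta Cp rounded down to an integer at or above 3, about 3 SD of DMSO wells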;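 note: higher means less YB-1 transcript or more CDIP transcript relative to DMSO; stock transfer was 100 nL into about 100 µL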
MITF inh: inhibitors of MITF; TRPM1 promoter luciferase, luminescence, 24 h; inhibition, % (test concentration not listed); hit rate 0.28% among 37,000; AID 2240;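 active = most replicates at 85% or more, or half of them and the mean; inconclusive = half reach 85% but not the mean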;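 note: human melanocyte line stably carrying TRPM1 promoter luciferase reporter; 0% = vehicle wells and 100% = a positive control; the first replicate is given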
PD-1 reversal: reversal of PD-1 mediated T-cell inhibition; activation, % (test concentration not listed); 29,000 tested, under 10 active; primary human CD4 T cells, PD-L1 beads, CellTiter-Glo 96 h;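 active = replicate mean of 50% or more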;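 note: 0% = median vehicle wells and 100% = positive control; 100 nL library stock added to about 50 µL; numbers are from one replicate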
Numbers without * were called inactive; u = inconclusive; x = not tested or not shown. A portion of the library. The share of hits here may be higher or lower than overall.

SMILES	Hedgehog inh	YB-1 expr inh	MITF inh	PD-1 reversal
COc1ccc(NC(=O)N(C)C[C@H]2Oc3ccc(NC(=O)c4ccncc4)cc3CC(=O)N([C@@H](C)CO)C[C@H]2C)cc1	-4	0.16	3	0.4
COc1ccc(CN(C)C[C@H]2Oc3ccc(NS(=O)(=O)c4ccc(F)cc4)cc3C(=O)N([C@H](C)CO)C[C@@H]2C)cc1	-3	0.16	0	x
COc1ccc(NC(=O)Nc2ccc3c(c2)CC(=O)N([C@H](C)CO)C[C@@H](C)[C@H](CN(C)C(=O)Nc2ccc(OC)cc2)O3)cc1	x	0.22	-3	-0.4
COc1ccc(CN(C)C[C@H]2Oc3c(NS(=O)(=O)c4ccccc4)cccc3C(=O)N([C@H](C)CO)C[C@@H]2C)cc1	-37	0.26	-8	x
C[C@H]1CN([C@@H](C)CO)C(=O)Cc2cc(NS(=O)(=O)c3ccc(F)cc3)ccc2O[C@H]1CN(C)C(=O)Nc1ccc(F)cc1	x	-0.54	-8	0.9
O=C(O)CCNc1ncnc2sc3c(c12)CCCC3	-19	-0.17	14	0.0
Nc1nc(Cl)nc2c1ncn2C1C[C@@H](O)C(CO)O1 (some centres not stated)	72*	0.7	49	-24
COc1ccc(NC(=O)CN2CCN(S(=O)(=O)c3ccc(C)cc3C)CC2)cc1	x	x	7	0.2
CC(C)OC(=O)c1cc(N)c2c(-c3ccc(F)cc3)c(-c3cccs3)sc2n1	-5	-0.18	-9	-6.9
C[C@@H]1CCCCO[C@@H](CN(C)C(=O)Cc2ccccc2)[C@@H](C)CN([C@H](C)CO)C(=O)c2cc(NC(=O)Cc3ccccc3)ccc2O1	-5	-0.052	13	0.5
Cc1noc(C)c1NC(=O)Nc1cccc2c1O[C@H](CN(C)Cc1ccc(Cl)c(Cl)c1)[C@H](C)CN([C@H](C)CO)C2=O	-42	0.2	-18	1.0
Cc1ccc(-c2cc(C(=O)NCCCn3ccnc3)no2)cc1	x	x	-45	-2.0
c1ccc(C2(Cn3ccc4ccccc43)OCCO2)cc1	-10	0.025	-2	-1.0
CC1(C)CC[C@]2(C(=O)O[C@@H]3O[C@H](CO)[C@@H](O)[C@H](O)[C@H]3O)CC[C@]3(C)C(=CCC4[C@@]5(C)CC[C@H](O[C@@H]6O[C@H](C(=O)O)[C@@H](O)[C@H](O)[C@H]6O)C(C)(C)C5CC[C@]43C)C2C1 (some centres not stated)	38	1.3	20	0.1
Cc1noc(C)c1NC(=O)Nc1ccc2c(c1)CC(=O)N([C@@H](C)CO)C[C@H](C)[C@H](CN(C)Cc1ccncc1)O2	-24	0.37	-31	x
COc1ccc(S(=O)(=O)Nc2ccc3c(c2)C(=O)N([C@H](C)CO)C[C@@H](C)[C@@H](CN(C)Cc2ccc(Cl)c(Cl)c2)O3)cc1	78*	0.032	27	-1.6
C[C@H]1CN([C@@H](C)CO)C(=O)c2cc(NC(=O)CCN3CCOCC3)ccc2O[C@@H]1CN(C)Cc1ccc(Cl)c(Cl)c1	x	0.019	-19	-0.3
C[C@@H]1CN([C@H](C)CO)C(=O)Cc2cc(NC(=O)Cn3cnnn3)ccc2O[C@@H]1CN(C)S(C)(=O)=O	-10	-0.045	12	1.3
CCCN(CCC)S(=O)(=O)c1ccc(C(=O)NN)cc1	-17	-0.58	-3	-0.8
COc1ccc(S(=O)(=O)Nc2ccc3c(c2)C(=O)N([C@@H](C)CO)C[C@@H](C)[C@@H](CN(C)S(=O)(=O)c2ccc(F)cc2)O3)cc1	11	-0.028	-6	-0.4
O=C(Nc1ccc(-c2nc3cc(NC(=O)C4CCCCC4)ccc3o2)cc1)C1CCCCC1	33	0.033	5	0.1
C[C@H]1CN([C@@H](C)CO)C(=O)Cc2cc(NS(=O)(=O)c3cccs3)ccc2O[C@@H]1CN(C)CC1CC1	9	-0.079	0	0.9
C[C@H](CO)N1C[C@H](C)[C@@H](CN(C)Cc2ccc(Oc3ccccc3)cc2)Oc2ccc(NC(=O)C3CCCCC3)cc2C1=O	x	0.57	3	-2.9
C[C@@H]1CN([C@@H](C)CO)C(=O)Cc2cc(NC(=O)Cc3ccccc3)ccc2O[C@@H]1CN(C)Cc1ccc(C(=O)O)cc1	-11	-0.023	-4	2.6
C[C@H](CO)N1C[C@H](C)[C@H](CN(C)Cc2ccc3c(c2)OCO3)Oc2ccc(NC(=O)CCCCCC(=O)Nc3ccccc3N)cc2C1=O	x	0.4	-5	-0.1
Next part:
SMILES	Hedgehog inh	YB-1 expr inh	MITF inh	PD-1 reversal
O=C(NC(C(=O)O)C12CC3CC(CC(C3)C1)C2)c1ccc(F)cc1 (configuration not stated)	x	-0.11	0	-0.3
COc1ccc(NC(=O)Nc2ccc3c(c2)C(=O)N([C@@H](C)CO)C[C@@H](C)[C@@H](CN(C)C(=O)Nc2ccccc2)O3)cc1	-57	0.18	10	x
C[C@@H]1CN([C@@H](C)CO)C(=O)c2cc(NC(=O)CCC(F)(F)F)ccc2O[C@@H]1CN(C)Cc1ccc2c(c1)OCO2	-12	0.068	-1	0.2
C[C@H](CO)N1C[C@H](C)[C@H](CN(C)Cc2ccc(C(F)(F)F)cc2)Oc2ccc(NC(=O)Cc3cn(C)c4ccccc34)cc2CC1=O	-26	0.14	29	0.2
COc1ccc(NC(=O)N(C)C[C@@H]2Oc3ccc(NS(C)(=O)=O)cc3C(=O)N([C@@H](C)CO)C[C@H]2C)cc1	-42	-0.041	-6	x
Cc1noc(C)c1NC(=O)N(C)C[C@H]1Oc2ccc(NS(=O)(=O)c3ccc(F)cc3)cc2CC(=O)N([C@H](C)CO)C[C@H]1C	-38	0.24	-1	-0.6
Cc1ccc(-c2nc3ncccc3o2)cc1NC(=O)COc1ccc(Br)cc1	x	x	24	-6.5
Cc1noc(C)c1S(=O)(=O)Nc1ccc2c(c1)CC(=O)N([C@H](C)CO)C[C@@H](C)[C@@H](CN(C)S(=O)(=O)c1ccc(F)cc1)O2	-7	-0.11	33	-0.9
C[C@@H]1CN([C@H](C)CO)C(=O)Cc2cc(NC(=O)Nc3ccc4c(c3)OCO4)ccc2O[C@@H]1CN(C)CC1CCCCC1	x	-0.63	0	1.0
C[C@@H]1CN([C@@H](C)CO)C(=O)c2cc(NC(=O)NC3CCCCC3)ccc2O[C@H]1CN(C)S(=O)(=O)c1cccs1	-3	-0.051	-2	-1.5
Cc1noc(C)c1NC(=O)Nc1cccc2c1O[C@H](CN(C)C(=O)Nc1cccc3ccccc13)[C@@H](C)CN([C@H](C)CO)C2=O	u	0.36	-2	1.0
C[C@H]1CN([C@@H](C)CO)C(=O)Cc2cc(NC(=O)CCC(F)(F)F)ccc2O[C@@H]1CN(C)C(=O)NC1CCCCC1	-6	0.2	-5	x
O=S(=O)(c1ccc(Cl)cc1)N1CCN(CC(O)COc2ccc3ccccc3c2)CC1 (configuration not stated)	x	x	22	-0.3
Cn1c(SCC(=O)c2ccc(Br)cc2)nnc1-c1cc2ccccc2o1	x	x	-16	0.5
C=C1C(NC)CCC23CC24CCC2(C)C(C(C)N(C)C(C)=O)C(O)CC2(C)C4CCC13 (configuration not stated)	1	0.17	-4	-1.9
O=C(CSc1nc2c(c(-c3ccccc3)n1)CCCCC2)N1N=CCC1c1ccccc1 (configuration not stated)	x	x	-26	3.4
C=C1C(=O)O[C@@H]2C[C@H](C)[C@@]3(O)C[C@H](O)[C@@](C)(C[C@@H](OC(=O)C(C)C)[C@@H]12)O3	17	-0.94	-11	-14
C[C@H](CO)N1C[C@H](C)[C@H](CN(C)C(=O)Nc2ccc3c(c2)OCO3)Oc2ccc(NS(=O)(=O)c3cccs3)cc2CC1=O	-16	0.071	-9	0.5
C[C@@H]1CCCCO[C@@H](CN(C)Cc2ccc(Cl)c(Cl)c2)[C@@H](C)CN([C@H](C)CO)C(=O)c2cc(NS(=O)(=O)c3cn(C)cn3)ccc2O1	-6	0.00019	0	-0.2
Cc1ccc(C)n1-c1ccc(C(=O)OCC(=O)c2ccc(Cl)cc2)cc1	46	-0.058	-13	-0.9
C[C@@H]1CN([C@H](C)CO)C(=O)c2cc(NC(=O)C3CC3)ccc2O[C@@H]1CN(C)S(=O)(=O)c1cn(C)cn1	-55	0.4	1	x
CCOc1ccc(NC(C)=O)cc1	-31	0.69	-14	1.5
OC(COc1ccc2ccccc2c1)Cn1cncn1 (configuration not stated)	x	x	-60	0.9
C[C@H]1CN([C@@H](C)CO)C(=O)c2cc(NC(=O)CCN3CCOCC3)ccc2O[C@H]1CN(C)Cc1ccc(Cl)c(Cl)c1	x	-0.37	-4	2.3
C[C@H](CO)N1C[C@H](C)[C@@H](CN(C)S(=O)(=O)c2cccs2)Oc2ccc(NS(=O)(=O)c3ccccc3)cc2C1=O	x	-0.014	-18	-3.2

Among those listed so far, two contain bromine.
SMILES	Hedgehog inh	YB-1 expr inh	MITF inh	PD-1 reversal
Cc1ccc(-c2nc3ncccc3o2)cc1NC(=O)COc1ccc(Br)cc1	x	x	24	-6.5
Cn1c(SCC(=O)c2ccc(Br)cc2)nnc1-c1cc2ccccc2o1	x	x	-16	0.5

Following part.
SMILES	Hedgehog inh	YB-1 expr inh	MITF inh	PD-1 reversal
C[C@H](CO)N1C[C@H](C)[C@H](CN(C)S(=O)(=O)c2ccc(F)cc2)Oc2ccc(NC(=O)c3ccncc3)cc2C1=O	-45	-0.31	-14	-2.1
CSc1ncc(Cl)c(C(=O)Nc2sc3c(c2C(=O)NCc2ccco2)CCC3)n1	x	x	23	0.2
Cc1ccc(S(=O)(=O)Nc2cccc3c2O[C@H](CN(C)C(=O)Nc2cccc4ccccc24)[C@@H](C)CN([C@@H](C)CO)C3=O)cc1	16	0.064	17	x
O=C(NCCCN1CCCC1=O)Nc1ccc(Cl)cc1	x	x	-46	2.6
Cc1noc(C)c1NC(=O)Nc1ccc2c(c1)CC(=O)N([C@@H](C)CO)C[C@H](C)[C@@H](CN(C)C(=O)Nc1c(C)noc1C)O2	43	0.046	3	-0.3
Cc1ccc(C(=O)Nc2cccc(NC(=O)COc3ccc(Br)cc3)c2)cc1	x	x	-1	2.9
CC(C)NC(=O)N(C)C[C@H]1Oc2c(NC(=O)c3cnccn3)cccc2C(=O)N([C@H](C)CO)C[C@H]1C	-36	0.32	-6	0.1
CN(CC(=O)N1CCC(C(N)=O)CC1)S(=O)(=O)c1ccc(F)cc1	x	x	-10	-0.8
Cc1ccc(S(=O)(=O)N(C)C[C@@H]2Oc3ccc(NC(=O)NC4CCCCC4)cc3C(=O)N([C@@H](C)CO)C[C@H]2C)cc1	x	0.36	7	-0.9
CC(C)NC(=O)Nc1ccc2c(c1)C(=O)N([C@@H](C)CO)C[C@H](C)[C@H](CN(C)S(C)(=O)=O)O2	x	0.21	-6	-0.2
COc1ccc(NC(=O)CC2Sc3ccc(C(F)(F)F)cc3NC2=O)c(OC)c1 (configuration not stated)	x	x	11	-1.4
CO[C@@H]1CC(OC2CCC3(C)C(CCC45CCC(C6=CC(=O)OC6)C(C)(CCC43)C5=O)C2)O[C@H](C)[C@@H]1O[C@@H]1O[C@H](CO[C@@H]2O[C@H](CO)[C@@H](O)[C@H](O)[C@H]2O)[C@@H](O)[C@H](O)[C@H]1O (some centres not stated)	-34	-0.74	20	-10
C[C@@H]1CN([C@H](C)CO)C(=O)c2cccc(NC(=O)Nc3ccc(C(F)(F)F)cc3)c2O[C@@H]1CN(C)C(=O)Nc1ccc(F)cc1	7	-0.49	7	-2.5
N#Cc1ccc(C=NCCN2CCNC2=O)cc1	-22	-0.015	-5	0.7
O=C(COc1ccccc1Br)NCc1cccnc1	x	x	-25	-0.2
CCOc1ccc(/C=C(\NC(=O)c2ccccc2)C(=O)NC)c2ccccc12	x	-0.5	1	1.1
C[C@@H]1CN([C@@H](C)CO)C(=O)c2cc(NC(=O)CCCCCC(=O)Nc3ccccc3N)ccc2O[C@@H]1CN(C)C(=O)NC1CCCCC1	x	0.22	-7	1.4
COc1ccc(S(=O)(=O)N(C)C[C@@H]2Oc3ccc(NS(=O)(=O)c4ccccc4)cc3CC(=O)N([C@@H](C)CO)C[C@@H]2C)cc1	31	-0.15	-3	-0.4
C[C@H]1CN([C@@H](C)CO)C(=O)c2cccc(NS(=O)(=O)c3cccs3)c2O[C@@H]1CN(C)C(=O)Nc1ccc2c(c1)OCO2	-34	-0.19	-6	0.0

Complete entries, looked up by structure:
Entry for `CCOc1ccc(/C=C(\NC(=O)c2ccccc2)C(=O)NC)c2ccccc12` : Hedgehog inh = x; YB-1 expr inh = -0.5; MITF inh = 1; PD-1 reversal = 1.1
Entry for `COc1ccc(NC(=O)CC2Sc3ccc(C(F)(F)F)cc3NC2=O)c(OC)c1` (configuration not stated) : Hedgehog inh = x; YB-1 expr inh = x; MITF inh = 11; PD-1 reversal = -1.4
